# D2 potentiator – potentiates the human D2 dopamine receptor allosterically; P14416; DiscoveRx D2 beta-arrestin cells, luminescence, 90 min; 100% = 57 uM dopamine signal; potentiation, % (concentration not given with the values); 360,000 tested, 0.23% active; active = potentiation of 50% or more; inconclusive = 30% to 50%; inactive = 30% or less;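 note: compound concentration not given in the record; tested on top of an EC20 dose of dopamine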
#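 D2 cells co-treated with compound plus 50 nM dopamine (EC20) for 90 min at 37 deg C to detect potentiation. Beta-arrestin recruitment was read as enzyme-fragment luminescence after 1 h at ambient temperature. Full response was set by 57 uM dopamine.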
# gsp ag – activates gsp, the McCune-Albright syndrome mutation; Potency, µM (top dose mostly 76.9 µM), for the others: at the top dose activation (cAMP increase), most hits filed as activators; 340,000 tested, 0.13% active; gsp mutant cells, cAMP HTRF, 30 min; control for the full effect not named in the record; active = well fitted activation curve with a large enough effect; inconclusive = small, poorly fitted or top-dose-only effect, or another doubt; inactive = no such curve, though single readings can be large or run the other way; cell line not stated here;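 note: phosphodiesterase inhibitor Ro 20-1724 added with compounds to block cAMP breakdown; potency is the fitted concentration of half-maximal effect; nearly all actives have a fitted effect of over 60% in size; about a fifth of the inactives were tested at one dose only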
#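 Cells stably selected in G418 were plated at 2000/well, grown 16-24 hr, then given compounds in DMSO with the PDE inhibitor […] (300 uM solution added) for 30 min at 37C; cAMP was read by HTRF.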
# Six1-Eya2 blk – inhibitors of human Six1/Eya2 interaction; Q15475+O00167; AlphaScreen GST-Six1/His-Eya2 binding, biochemical; stronger effect = lower value; control for the full effect not named in the record; activity change, % (concentration not given with the values); 360,000 tested, 0.56% active; AID 651725; in the data active = activity change below about -65%; inconclusive = about -30% to -65%; inactive = above about -30%; note: % is set by controls: 0 for no effect and ±100 for the full control effect
# Target sequence (O00167 whole entry, looked up): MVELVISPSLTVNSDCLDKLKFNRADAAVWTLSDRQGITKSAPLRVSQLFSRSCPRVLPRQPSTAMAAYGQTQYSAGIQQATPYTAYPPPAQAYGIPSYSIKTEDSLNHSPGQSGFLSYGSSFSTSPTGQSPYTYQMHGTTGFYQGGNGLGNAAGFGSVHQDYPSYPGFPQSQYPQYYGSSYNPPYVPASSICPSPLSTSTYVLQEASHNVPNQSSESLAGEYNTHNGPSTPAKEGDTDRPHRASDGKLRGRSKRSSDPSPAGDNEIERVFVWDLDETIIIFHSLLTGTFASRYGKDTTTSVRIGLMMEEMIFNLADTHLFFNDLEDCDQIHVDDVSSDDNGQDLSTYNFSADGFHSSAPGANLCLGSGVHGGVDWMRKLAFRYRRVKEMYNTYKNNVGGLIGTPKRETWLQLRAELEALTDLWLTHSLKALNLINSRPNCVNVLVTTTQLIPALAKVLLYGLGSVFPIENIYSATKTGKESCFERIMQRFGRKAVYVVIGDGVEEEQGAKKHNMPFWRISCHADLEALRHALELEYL
# Target sequence (Q15475 whole entry, looked up): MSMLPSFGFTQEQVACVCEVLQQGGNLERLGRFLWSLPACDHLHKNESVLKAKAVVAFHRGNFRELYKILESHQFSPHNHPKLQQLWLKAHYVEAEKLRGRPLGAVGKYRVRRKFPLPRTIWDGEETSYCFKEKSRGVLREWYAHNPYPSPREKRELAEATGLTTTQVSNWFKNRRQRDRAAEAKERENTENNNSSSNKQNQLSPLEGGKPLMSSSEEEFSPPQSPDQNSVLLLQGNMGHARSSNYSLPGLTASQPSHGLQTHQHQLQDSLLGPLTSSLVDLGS
#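 GST-Six1 + His-Eya2 (5X stock: 250/500 nM); Tris pH 8.0, 300 mM NaCl, 0.05% BSA, 0.02% Tween 20; GSH donor/Ni acceptor beads; 1 h 37 °C dark; AlphaScreen readout.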
# gsp antagonist – gsp mutant antagonism; gsp-mutant cells, cAMP HTRF, 30 min; control for the full effect not named in the record; Potency, µM (highest dose often 76.9 µM), for the others: top-dose activity change, negative = inhibition, hits mostly inhibitors; 340,000 tested, 0.4% active; AID 624288; active = falling curve of any shape with a large fitted effect; inconclusive = falling curve, mostly with a smaller effect; inactive = flat or rising curve; cell line not stated here;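 note: intracellular cAMP measured with PDE inhibitor Ro 20-1724 present during compound exposure; potency is the fitted concentration of half-maximal effect; % is set by controls: 0 for no effect and ±100 for the full control effect; nearly all actives have a fitted effect of over 65% in size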
#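 HTRF cAMP measurement after 30 min RT detection following 30 min, 37C compound treatment alongside […] (added as 300 uM solution) in G418-selected cells seeded at 2000/well and grown 16–24 h.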
# D2 agonist – agonists of human D2 dopamine receptor (beta-arrestin); DiscoveRx PathHunter D2 beta-arrestin, luminescence, 90 min; 100% = 57 uM dopamine signal; P14416; activation, % (no concentration beside the values); 360,000 tested, 0.084% active; in the data active = activation above about 40%; inconclusive = about 15% to 40%; inactive = below about 15%; note: compound concentration not given in the record; the text of the record calls up to 30% inactive
#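 Agonist mode: compounds alone added to overnight-plated D2 PathHunter cells for 90 min at 37 C, with 57 uM final dopamine (EC100) defining full response. Beta-arrestin recruitment detected by chemiluminescent reagent, read after 1 h at ambient temperature.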
# CtBP-E1A blk – inhibitors of CtBP/E1A interaction | AID 651724 | 340,000 tested, 0.49% active | activity change, % (concentration not given with the values) | AlphaScreen GST-E1A/His-CtBP binding, 1536-well; stronger effect = lower value; control for the full effect not named in the record; in the data active means activity change below about -65%; inconclusive means about -30% to -65%; inactive means above about -30%; note: % is set by controls: 0 for no effect and ±100 for the full control effect
#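 AlphaScreen with 125 nM GST-E1A and 125 nM His-CtBP (5X stocks) in Tris pH 8.0, 300 mM NaCl, BSA, Tween 20, TCEP. Compounds preincubated 2 h at 37 deg C, then glutathione donor/nickel acceptor beads added for 1 h at 37 deg C in dark.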
# * marks the source's active call; other numbers are inactive results; ? = inconclusive; / = no result given; & = joins results of further samples; [ ] = another dose, or the depositor's remark.
Structure,gsp antagonist,gsp ag,Six1-Eya2 blk,D2 potentiator,CtBP-E1A blk,D2 agonist
COc1ccc(CCN(C)C(=O)c2cc(S(=O)(=O)N3CCCCC3)ccc2Cl)cc1OC,-5%,6%[15.4 µM],3,-1,-3,2.6
Cn1nnnc1SCC(=O)Nc1nc(-c2ccc(F)c(F)c2)cs1,-4%,8%,2,7,0,-10
C=CCn1c(SCC(=O)Nc2ccc(N3CCOCC3)cc2)nc2ccccc2c1=O,-5%,-2%,6,14,5,-5.0
COc1ccc(OC)c(NC(=O)CCC(=O)N(Cc2ccc(OC)c(OC)c2)c2nccs2)c1,-21%,16%[15.4 µM],-8,13,-8,-2.9
O=C(O)CSc1ccc(Oc2ccc(SCC(=O)O)cc2)cc1,5%,11%[15.4 µM],7,-2,0,-1.7
NC(=O)c1cnn2c(-c3ccc(Cl)cc3Cl)ccnc12,9%,-4%,3,-4,5,-1.2
COC(=O)CCC(=O)c1oc2ccccc2c1N,5%,-10%,-8,-11,0,-4.0
C[C@H](CO)N1C[C@H](C)[C@H](CN(C)C(=O)Nc2cccc(F)c2)Oc2cc(C#CC3(O)CCCC3)ccc2S1(=O)=O,/,-23%,-7,1,3,-3.1
CN(C)c1ccc(NC(=O)c2ccncc2)c2ccccc12,0%,30%,5,2,-4,-1.6
O=C(CSc1nc(O)c(C2CCCCC2)c(=O)[nH]1)Nc1ccccc1Cl,18%,-8%[15.4 µM],-8,-15,-14,-2.9
CC(C)(C)C(=O)Nc1cc(NC(=O)C(C)(C)C)cc(C(=O)NNC(=O)c2ccncc2)c1,6%,-3%,-11,-2,-12,-3.3
Cc1nnc(-n2cnc3ccccc32)c2ccccc12,7%,7%,3,0,5,-0.9
O=C(NC(c1ccc(Cl)cc1)c1cnccn1)C1CCN(Cc2ccccc2)CC1 (configuration not stated),/,/,0,-22,1,-5.9
COc1cccc(C(=O)n2ccc(-c3cccs3)n2)c1,13%,9%[15.4 µM],19,-6,7,-2.2
Cc1ccccc1CC(=O)Nc1ccc2c(c1)c(=O)n(C)n2-c1ccccc1F,/,/,-3,-9,0,-2.0
Cc1ccc(N2CCN(S(=O)(=O)N(C)C)CC2)cc1C,-7%,-19%,-6,-3,-2,3.3
CCOC(=O)C(=O)Nc1ccc(S(=O)(=O)Nc2nccc(C)n2)cc1,/,-50%[inhibitor],-2,-5,3,-3.5
COC(=O)c1ccc(CSc2nc3ccccc3c(=O)n2-c2cccc(OC)c2)o1,7%,-22%,-10,-15,11,-0.6
CCOC(=O)C1CCN(Cc2ccc(OC)c(C)c2OC)CC1,-4%,4%,-2,-4,-10,-1.0
CCC1CCCCN1C(=S)Nc1ccc(C(C)=O)cc1 (configuration not stated),2%,-5%,6,-1,1,0.5
O=C(CN1CCN(S(=O)(=O)c2ccc3ccccc3c2)CC1)Nc1ccc2c(c1)CCC2,-36%,28%,4,-18,21,0.4
CN1CCN(c2ccccc2NC(=O)c2ccc([N+](=O)[O-])o2)CC1,8%,-3%,0,?,-8,6.9
CCOc1ccc(CCNC(=O)COC(=O)c2nc3nc(C)cc(C)n3n2)cc1OCC,7%,?,1,2,0,-9.5
CC(CCc1ccccc1)NCc1ccc(Cl)cc1Cl (configuration not stated),-3%,3%,64,1,96,14
COc1ccc(C(=O)C(O)C(c2ccc(C)cc2)N2CCOCC2)cc1OC (configuration not stated),-11%,-11%[15.4 µM],3,-5,5,1.3
NC(N)=N/N=C/c1ccc(OCc2ccccc2)cc1,3%,5%,-5,8,-2,4.0
COc1cccc(NC(=O)c2cn(C)c(=O)c3cc(OC)c(OC)cc23)c1,17%,?,?,-7,?,-1.1
CCOc1ccc2[nH]c3ncccc3c(=O)c2c1,7%,8%,-16,6,-2,-3.0
COc1cc(/C=C/C(=O)OCC(=O)NC2CCCCCCC2)ccc1O,-25%,-28%,25,2,0,-0.7
Clc1ccc(CNc2ccc(CNc3ncn[nH]3)cc2)cc1,7%,3%,-15,-9,-6,-7.0

# Reprinted at random: two compounds from above
Structure,gsp antagonist,gsp ag,Six1-Eya2 blk,D2 potentiator,CtBP-E1A blk,D2 agonist
NC(=O)c1cnn2c(-c3ccc(Cl)cc3Cl)ccnc12,9%,-4%,3,-4,5,-1.2
O=C(NC(c1ccc(Cl)cc1)c1cnccn1)C1CCN(Cc2ccccc2)CC1 (configuration not stated),/,/,0,-22,1,-5.9

# Other entries.
Structure,gsp antagonist,gsp ag,Six1-Eya2 blk,D2 potentiator,CtBP-E1A blk,D2 agonist
Cc1nnc(NCC=Cc2ccccc2)s1,/,/,-1,-1,-3,-3.3
COc1ccc(NC(=O)CN(C)C(=O)c2cccnc2Sc2ccc(C)c(C)c2)cc1,-5%,15%,0,1,-23,-0.1
COc1ccc(-c2ccnc3[nH]n(-c4ccccc4)c(=O)c23)cc1,-5%,-8%[15.4 µM],2,9,5,1.8
CCN(CC)Cc1cc(Oc2ccc(O)c(CN(CC)CC)c2)ccc1O,/,/,-22,-11,-13,-8.3
COC(=O)c1ccc(C(=O)Nc2ccc3nc(-c4ccncc4)[nH]c3c2)cc1,4%,?,8,7,3,13
Cc1ccccc1C(C)(O)c1cnc(C)n1Cc1ccccc1 (configuration not stated),/,12%,-2,-12,-3,-13
CN(C)C(=O)C(Sc1ccc(S(=O)(=O)N2CCCC2)cn1)c1ccccc1 (configuration not stated),-19%,-19%,3,2,3,3.0
COc1cc(N)cc(NC(=O)c2ccncc2)c1,-6%,6%,-7,4,0,2.3
COc1cccc(N/C(SCc2cccc([N+](=O)[O-])c2)=C(/C#N)C(=O)NCc2cccs2)c1,-11%,0%[15.4 µM],-19,-10,6,-0.2
CN(C)CCN(C(=O)C1CCN(S(=O)(=O)c2cccs2)CC1)c1nc2c(F)cccc2s1,-2%,1%,3,-30,0,-2.5
O=C(O)C1CCC(=O)N1C1c2ccccc2Oc2ccccc21 (configuration not stated),3%,-85%[inhibitor],6,-3,6,3.8
Cc1ccc(C(=O)Nc2nc(-c3ccccn3)cs2)s1,0%,41%,-90*,-3,-91*,12
CC(C)c1ccc(NC(=O)CNC(=O)Cn2cnc3ccccc3c2=O)cc1,10%,-33%,2,1,3,0.3
c1ccc(CNc2ncnc3c2cnn3Cc2ccccc2)cc1,21%,19%,1,6,0,-7.0
COc1cccc(N2CC(C(=O)Nc3c(C)cccc3C)CC2=O)c1 (configuration not stated),12%,-24%,23,-1,0,-3.6
CN(CC(=O)Nc1ccccc1Cl)C(=O)CSc1nncs1,-6%,-56%[inhibitor],28,-12,0,-5.2
CC(C)CN(C(=O)CCC1CCCCC1)c1c(N)n(CC(C)C)c(=O)[nH]c1=O,10%,66%[15.4 µM],2,-4,8,-2.7
CC(Oc1ccc2cc(-c3ccccc3)c(=O)oc2c1)C(=O)NCC1CCC(C(=O)O)CC1 (configuration not stated),-12%,/,-9,-15,-10,-3.9
CCc1ccc(NC(=O)c2cnc(SC)nc2C)cc1,0%,11%,-19,-21,-18,-0.9
O=S(=O)(c1cccc2nsnc12)N1CCNCC1,5%,1%,1,-3,4,3.9
CC(C)n1cc(C(=O)c2ccccc2O)cc(C#N)c1=O,4%,-44%[inhibitor],3,-9,-2,-2.9
CCc1cccc(NC(=O)CCCN2C(=O)C(c3ccccc3)Oc3cccnc32)c1 (configuration not stated),-15%,?,1,-41,4,-2.3
Cc1nnc(NC(=O)C2CCN(S(=O)(=O)c3ccc(F)c(F)c3)CC2)o1,5%,-42%[inhibitor],?,2,?,1.2
CC(C)(C)N(Cc1cc2ccccc2[nH]c1=O)C(=O)c1cccnc1,13%,0%,8,2,4,-6.5
COc1ccc(C(=O)NNC(=S)NC(=O)C(C)(C)C)cc1,-1%,1%[15.4 µM],15,-11,-12,-1.1
N#Cc1nc(Cc2ccccc2)oc1NCCCn1ccnc1,-9%,?,-7,-1,8,0.6
COc1cc2c(cc1OC)C(C1(O)CCCCC1)NCC2 (configuration not stated),4%,-32%[inhibitor],3,-13,/,1.3
COc1ccc(Br)cc1CNC(=O)C1CCCN(S(=O)(=O)N2CC(C)CC(C)C2)C1 (configuration not stated),?,21%,0,-3,9,3.5
Cc1cc(=O)oc(C)c1C(=O)NCCC(C)C,-1%,32%,-2,4,7,4.0
O=C(COc1ccc2ccc(=O)oc2c1)NC1CCS(=O)(=O)C1 (configuration not stated),13%,-40%,3,-7,3,-2.4
O=C(O)C(O)c1ccccc1 (configuration not stated),10%&0%,/,6&10,-10&-12,15&8,-9.5&-7.1
CN(c1ccccc1C(=O)Nc1ccc2c(c1)OCCO2)S(C)(=O)=O,15%,17%,5,0,8,-4.2
CCC(C)C(NC(=O)OC(C)(C)C)C(=O)NC(C)C(N)=O (configuration not stated),15%,-24%,3,-2,7,-3.8
CCOC(=O)Cc1c(C)nc2cc(-c3ccc(C(C)(C)C)cc3)[nH]n2c1=O,1%,5%,2,7,3,-2.5
C/C(=N\NC(=S)NC1CCCCC1)c1ccc(Cl)c(Cl)c1,20%,23%,-4,-9,-3,-1.9
O=C(NCCCN=C1NS(=O)(=O)c2ccccc21)c1ccc(S(=O)(=O)N2CCCCC2)cc1,-1%,?,1,-7,-4,-4.3
Nn1cc(-c2ccccc2)nc1SCC(=O)N1CCN(S(=O)(=O)c2ccccc2)CC1,-17%,1%,-2,-7,5,-3.3
Cc1ccc2c(=O)cc(C(=O)NCCc3ccc(S(N)(=O)=O)cc3)oc2c1C,-12%,22%,-2,3,-4,4.2
O=C1C=C(O)c2[nH]c(=O)ccc2C1=O,-3%,?,-18,-1,5,13
CC(=O)Nc1cccc(N2C(=O)CC(Cc3ccccc3)C2=O)c1 (configuration not stated),1%,0%,12,5,3,1.4
COc1ccc(NC(=O)C2C3C=CC(C3)C2C(=O)NCc2ccccn2)c(OC)c1 (configuration not stated),-15%,?,-16,-6,-8,-2.2
CC(C)(C)[C@H]1C=C(C(=O)NC2CC2)O[C@@H](OCc2ccc(CO)cc2)C1,-8%,-17%,0,7,5,4.7
CCOc1ccc(S(=O)(=O)N2CCN(C(=O)c3ccc(C)c(S(=O)(=O)N4CCOCC4)c3)CC2)cc1,-9%,23%,-2,0,-1,-3.3
COC(=O)c1cc(NC(=O)Nc2ccccc2OC)cc(C(=O)OC)c1,-20%,4%,-15,-11,-7,-2.9
CC(C)(C)NC(=O)CSc1nnc(NC(=O)CCn2cnc3ccccc3c2=O)s1,0%,-29%,11,1,9,-2.2
COc1ccc(CNC(=O)CN(C(=O)CCC(=O)Nc2ccccn2)c2cccc(C)c2)cc1,-3%,8%,0,-7,3,-4.6

# Screens (PubChem BioAssay)
